# Screens as filed in PubChem.
# TRPML1 blocker – human mucolipin-1 channel inhibition | Q9GZU1 | TRPML1-inducible cells, Ca2+ dye fluorescence, FDSS; active compounds read low; inhibition of EC80 agonist-evoked calcium signal | activity change, negative = inhibition, % (concentration not given with the values) | actives 0.02% (n = 390,000); in the data active means activity change below about -50%; inconclusive means about -30% to -50%; inactive means above about -30%;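 note: stimulus is agonist 54-4 at its EC80 concentration; % is set by controls: 0 for no effect and ±100 for the full control effect; the text of the record puts the active cut at -80%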
# Target sequence (Q9GZU1 whole entry, looked up): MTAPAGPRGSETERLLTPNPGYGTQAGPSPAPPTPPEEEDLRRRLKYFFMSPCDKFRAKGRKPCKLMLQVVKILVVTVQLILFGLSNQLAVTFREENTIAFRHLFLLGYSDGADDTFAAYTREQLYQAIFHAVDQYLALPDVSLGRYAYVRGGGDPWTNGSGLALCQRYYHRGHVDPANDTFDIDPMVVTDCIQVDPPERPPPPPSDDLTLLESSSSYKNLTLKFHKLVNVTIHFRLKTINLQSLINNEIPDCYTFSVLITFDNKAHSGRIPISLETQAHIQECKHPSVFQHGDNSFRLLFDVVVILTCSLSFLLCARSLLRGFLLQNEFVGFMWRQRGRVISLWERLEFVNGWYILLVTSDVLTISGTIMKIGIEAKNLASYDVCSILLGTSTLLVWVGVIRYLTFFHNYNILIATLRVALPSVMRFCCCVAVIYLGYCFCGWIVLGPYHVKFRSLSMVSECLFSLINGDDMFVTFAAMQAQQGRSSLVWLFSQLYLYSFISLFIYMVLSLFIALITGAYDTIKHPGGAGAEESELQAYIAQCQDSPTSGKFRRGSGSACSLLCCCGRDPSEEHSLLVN
#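 TRPML1-DL cells, Tet-induced overnight (~16 h, 37 °C) at 1,500 cells/well, were loaded with Ca8 no-wash dye plus quencher for 45-90 min at room temperature. Compounds were pinned during FDSS kinetic reading; agonist 54-4 at EC80 (4 uM final) then added.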
# ClpP mod – qHTS Assay for Activators of ClpP. ATP-dependent Clp protease proteolytic subunit (Bacillus subtilis (strain 168)), P80244. purified B. subtilis ClpP, FRET peptide cleavage, 20 min. Potency, µM (highest dose often 57.5 µM), without a hit: at the top dose activity change, negative = active. actives 1.9% (n = 340,000). AID 651965, 2013; active = well fitted falling curve with a large enough effect; inconclusive = small, poorly fitted or top-dose-only effect; inactive = no such curve, though single readings can be large or run the other way; note: potency is the fitted concentration of half-maximal effect; the source files actives as falling curves though it sought activators and does not explain the sign; nearly all actives have a fitted effect of over 65% in size; many hits overshoot -100%
# Target sequence (P80244 whole entry, looked up): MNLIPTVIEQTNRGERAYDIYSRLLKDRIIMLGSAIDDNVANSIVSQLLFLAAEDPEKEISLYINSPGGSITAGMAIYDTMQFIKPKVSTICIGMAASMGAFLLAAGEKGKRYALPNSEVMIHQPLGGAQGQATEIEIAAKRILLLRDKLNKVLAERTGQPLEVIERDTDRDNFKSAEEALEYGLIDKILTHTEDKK
#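 Purified B. subtilis ClpP, 10 microg/mL final in Tris/HCl pH8 with KCl, BSA, glycerol and Tween-20, cleaved an Abz/nitrotyrosine-quenched decapeptide. Fluorescence (ex 320, em 430) was read at 0 and 20 min at room temperature. Delta was normalized to 5.8 microM ADEP and DMSO/no-enzyme controls.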
# Sfp inh – Sfp phosphopantetheinyl transferase inhibition; actives 3.5% (n = 310,000); Biochemical Sfp PPTase activity, qHTS; Potency, µM, for inactives: max response, negative = inhibition, hits mostly inhibitors; active = well fitted inhibition curve with a large enough effect; inconclusive = small, poorly fitted or top-dose-only effect, or another doubt; inactive = no such curve, though single readings can be large or run the other way;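 note: the enzyme is Sfp with the accession as filed and its product quenches rhodamine fluorescence; potency is the fitted concentration of half-maximal effect; 0% = enzyme reaction without inhibitor and -100% = no enzyme wells; top concentration of the series not given in the record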
#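 With Hepes-Na pH 7.6 buffer containing 10 mM MgCl2, Sfp (15 nM) modified BHQ-2-YbbR (12.5 uM) using rhodamine-CoA (5 uM). Two reads 30 minutes apart at 525/598 nm yielded each well's rate.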
# gsp ag – activates gsp, the McCune-Albright syndrome mutation; gsp mutant cells, cAMP HTRF, 30 min; control for the full effect not named in the record; Potency, µM (top dose mostly 76.9 µM), inactives show at the highest dose activation (cAMP increase), usual class: activators; actives 0.13% (n = 340,000); active = well fitted activation curve with a large enough effect; inconclusive = small, poorly fitted or top-dose-only effect, or another doubt; inactive = no such curve, though single readings can be large or run the other way; cell line not stated here;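 note: phosphodiesterase inhibitor Ro 20-1724 added with compounds to block cAMP breakdown; potency is the fitted concentration of half-maximal effect; nearly all actives have a fitted effect of over 60% in size; about a fifth of the inactives were tested at one dose only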
#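 Cells in DMEM/10% FBS with G418 were pretreated with compounds in DMSO plus […] (300 uM stock) for 30 min at 37C. cAMP was measured by HTRF (cAMP-d2 plus anti-cAMP antibody-K) after 30 min at room temperature.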
# gsp antag – antagonizes gsp, the McCune-Albright syndrome mutation; Potency, µM (highest dose often 76.9 µM), without a hit: top-dose activity change, negative = inhibition, actives largely listed as inhibitors; gsp-mutant cells, cAMP HTRF, 30 min; control for the full effect not named in the record; actives 0.4% (n = 340,000); AID 624288; active = falling curve of any shape with a large fitted effect; inconclusive = falling curve, mostly with a smaller effect; inactive = flat or rising curve; cell line not stated here;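 note: intracellular cAMP measured with PDE inhibitor Ro 20-1724 present during compound exposure; potency is the fitted concentration of half-maximal effect; % is set by controls: 0 for no effect and ±100 for the full control effect; nearly all actives have a fitted effect of over 65% in size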
#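 Cells in G418 medium, seeded 16-24 h, 37C; buffer exchange to DPBS + 1 mM CaCl2, 0.5 mM MgCl2, 0.05% BSA; cpds in DMSO + […] (300 uM stock), 30 min 37C; HTRF cAMP detection.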
# Menin-MLL FL inh – displaces fluorescein MLL peptide from human menin; Fluorescence polarization, fluorescein-MLL peptide displacement from menin; FP activity change, % at 61.4 µM; 290,000 tested, under 10 active; AID 1766; inconclusive = falling polarisation curve, or a change in total fluorescence; inactive = total fluorescence flat and polarisation flat or rising; no compound was filed as active; the % refers to the polarisation; negative = inhibition;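 note: % of control where 0% means no effect; inhibitors lower the polarisation; unlabelled MLL peptide was the positive control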
# TRPV1 PAM – human TRPV1 potentiation; Q8NER1; TRPV1-expressing cells, Fluo-8 calcium influx, capsaicin EC20 potentiation; host cell line not named in the record; control for the full effect not named in the record; potentiation, % at 8.33 µM; actives 0.02% (n = 320,000); active means potentiation above 80%; inconclusive means 30% to 80%; inactive means below 30%; note: 0% is about no effect
#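 Cells expressing TRPV1 were dye-loaded with Fluo-8 and read kinetically: 10 s baseline, 3 min after compound (agonist portion), then 2 min after EC20 capsaicin (allosteric enhancer portion). Calcium-bound dye fluorescence at 480/520 nm.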
# An asterisk follows results filed as active; ? = inconclusive; . = not tested or not shown; & = joins results of further samples; [ ] = remark or other dose. No enrichment for hits. Share with any hit: about 4.9%.
Compound	Sfp inh	gsp ag	Menin-MLL FL inh	gsp antag	TRPML1 blocker	TRPV1 PAM	ClpP mod
CCC(=O)NC1=C(Nc2ccc(N)cc2)C(=O)c2ccccc2C1=O	-1%	7%[15.4 µM]	-9.1	?	2	1	?
Cc1ccc(CSCC(=O)N(C)CC(=O)Nc2ccccc2Cl)cc1	.	16%[15.4 µM]	.	-5%	-6	-37	.
Nc1ccc(NC(=O)c2ccco2)c(Cl)c1	5%	-21%	1.3	4%	8	7	.
CC1CC=CC2C1C(=O)N(Cc1ccccc1)C2c1ccc2ccccc2c1C=Cc1ccccc1 (stereo not given)	?	.	-1.3	.	44	.	.
CCC(C)N(C(=O)COC(=O)CSc1ccc(C)c(C)c1)C1CCS(=O)(=O)C1 (stereo not given)	.	6%	.	-3%	-17	-2	1.0%
COc1ccc(/C=N/NC(=O)Nc2cccc3nsnc23)c(OC)c1	-1%	?	0.0	4%	-8	-3	43%
O=C(CSc1nc(-c2ccc(F)cc2)cs1)NCCN1C(=O)CSC1=O	8%	-3%[15.4 µM]	2.1	-10%	12	15	.
COc1cc2c(cc1OC)C(c1cc(C)ccc1C)CC(=O)N2 (stereo not given)	10%	13%	-2.0	-6%	-5	-38	0.9%
CCOCC(=O)Nc1ccc([N+](=O)[O-])cc1C	16%	8%[15.4 µM]	1.4	10%	-4	0	.
CCCCCN1C/C=C\C(c2ccc(OC)cc2)N(Cc2ccc(F)cc2)C(=O)C1 (stereo not given)	12%	-9%	4.9&7.2	-5%	71&19	15	1.2%
COC(=O)c1c(C)[nH]c(C(=O)CN2CCOCC2)c1C	4%	0%	-2.1	-6%	61	27	?
CS(=O)(=O)N(CC(N)=O)Cc1ccc(Cl)cc1	24%	-12%	-1.0	-2%	2	2	0.2%
Cc1csc(N/N=C/c2ccc([N+](=O)[O-])cc2)n1	-6%	-107%[inhibitor]	-1.0	-4%	-5	2	.
COc1ccc(Nc2nc(NCCO)nc(OC)n2)cc1	-12%	9%	2.9	11%	15	4	-2.7%
CCOC(=O)c1oc2ccccc2c1CN1CCCCC1	?	-33%[inhibitor]	0.5	-2%	18	-5	-23%
CCOC(=O)c1c(C)nc(SC)c(C#N)c1-c1ccccc1	-21%	?	2.9	-3%	-8	17	-1.8%
CCn1c(SCC(=O)NCC2CCCO2)nc2c(c1=O)SCC2 (stereo not given)	7%	-4%	.	-5%	-8	4	0.5%
CC(C)(C)CC(=O)Nc1ccccc1N1CCN(c2ccccc2)CC1	-6%	-18%	0.7	-5%	66	-18	-2.2%
Cc1cn(CC(=O)NCC(C)c2ccccc2)c(=O)[nH]c1=O (stereo not given)	.	.	.	1%	24	.	1.4%
CC1CCN(c2nnc(NC(=O)Cn3c(=O)oc4ccccc43)s2)CC1	-12%	?	2.8	7%	-6	-13	-0.7%
NC(=S)N/N=C/c1ccccc1OC(=O)c1cc2ccccc2oc1=O	4%	-13%	1.2	-12%	5	-8	89%
O=C(C(=O)N1CCc2ccccc2C1)c1cn(CC(=O)N2CCCC2)c2ccccc12	9%	-15%[15.4 µM]	-3.1	?	-1	13	-0.1%
Cc1ccc(SCCC(=O)NCCSCc2ccccc2C)cc1	-17%	-7%	-2.1	-5%	-16	-14	0.3%
COc1ccc(NC(=O)Cn2nc(C(=O)O)c3ccccc3c2=O)cc1S(=O)(=O)N1CCCCC1	.	-38%[inhibitor]	.	-6%	9	.	.
COc1ccc(Cl)cc1NC(=O)CSc1cccc[n+]1[O-]	.	?	.	5%	-9	.	1.8%
Cc1cc(SCC#N)nc2ccccc12	-4%	26%	0.8	2%	-22	16	-0.1%
CCC(C)(C)NC(=O)c1cc(C(=O)OC)cc([N+](=O)[O-])c1	-2%	10%	0.1	-5%	-12	-9	-0.1%
COCCn1c(SCC(=O)N2CCCCC2)nc2c(c1=O)SCC2	14%	9%	.	5%	-2	0	-3.9%
CC(C)(C)Cc1c(-c2ccc(Br)cc2)nc2ccc(Cl)cn12	.	-72%[inhibitor]	.	.	-1	.	-2.0%
CC(=O)Nc1c(F)cc(Br)cc1F	21%	-44%[15.4 µM]	-1.4	3%	-6	1	.
O=C1c2cccc(Cl)c2C(=O)N1c1ccccn1	.	-4%[15.4 µM]	.	10%	-11	.	.
Cc1ccc(N(C)C(=O)c2ccc3c(Cl)c4c(nc3c2)CCC4)cc1C	-17%	2%	5.2	?	18	7	-1.0%
COCCN(C(=O)CC1CCCC1)c1c(N)n(CC(C)C)c(=O)[nH]c1=O	.	-6%	.	-9%	7	2	1.9%
Cc1ccc2cccc(CC(=O)NN)c2c1	.	-30%	.	.	16	.	0.8%
O=C(NNS(=O)(=O)c1ccccc1)c1cccc(F)c1	35µM*	-15%	0.9	6%	.	9	0.7%
COC(=O)c1cccc(NC(=S)NCc2ccco2)c1	-12%	-14%[15.4 µM]	-0.8	-4%	8	-19	.
CCN(CC)C(=O)CSc1nc2c(sc(=S)n2Cc2ccco2)c(=O)n1-c1ccccc1	2%	19%	0.9	?	-10	4	1.3%
CCc1cc2c(SCC(=O)c3ccccc3)ncnc2s1	-9%	-20%	2.4	?	-10	-12	-2.7%
CC(NC(=O)NC1CCCCC1)C(c1cccs1)N1CCN(C)CC1 (stereo not given)	9%	-33%	1.0	10%	23	0	0.3%
COc1cc(C(=O)Nc2ccc3c(c2)Cc2ccccc2-3)cc(OC)c1OC	-6%	-25%	-5.6	2%	27	4	-12%
CC(=O)N1c2ccc(S(=O)(=O)NCc3ccco3)cc2CC1C (stereo not given)	6%	21%	.	-25%	2	-3	0.5%
Cc1c(C(=O)NCc2ccccc2)oc2ccc(S(=O)(=O)N3CCCC3)cc12	12%	-1%	-1.6	-24%	1	.	-3.4%
Nc1c(S(=O)(=O)c2ccccc2)cnc2c(-c3ccc(F)cc3)cnn12	21%	14%	-0.7	13%	-2	15	0.3%
COc1ccc(CC(=O)N(C)Cc2ccc(C(C)(C)C)cc2)cc1S(=O)(=O)N1CCOCC1	0%	4%	.	-11%	36	?	0.5%
COc1cc(S(=O)(=O)N2CCOCC2)ccc1NC(=O)COC(=O)/C=C/c1cc(OC)c(OC)c(OC)c1	.	2%[15.4 µM]	.	-8%	-16	.	0.1%
Cn1c(=O)c2c(ncn2CC(O)CNc2cccc(Cl)c2)n(C)c1=O (stereo not given)	6%	0%[15.4 µM]	1.5	-19%	-2	-8	-0.2%
COC(=O)c1c(-n2c(C)cc(C=O)c2C)sc2c1CCCC2	-17%	-6%	3.0	-7%	7	5	-5.4%
Cc1cccc(NC2(C(F)(F)F)N=C(c3ccccc3)NC2=O)n1 (stereo not given)	-10%	1%	3.9	5%	9	7	0.8%
CC1(C)C[C@H]2C3=CCC4[C@@]5(C)CC[C@H](O)[C@](C)(CO)C5CC[C@@]4(C)[C@]3(C)C[C@@H](O)[C@@]2(CO)[C@@H](O)[C@@H]1O (stereo not given in full)	.	22%	.	-6%	-14	.	-5.4%
O=C(O)C1CCCN1c1ncnc2c1oc1ccccc12 (stereo not given)	0%	26%	-0.4	3%	-8	12	-0.5%
O=C(CN1CCC(c2nc3ccccc3s2)CC1)N1CCCCC1	12%	?	1.3	-1%	18	-8	-1.4%
COc1ccc(-c2csc(Nc3cc(C)ccn3)n2)cc1OC	-28%	-10%[15.4 µM]	3.5	-24%	-3	6	-0.6%
CC(=O)Nc1ccc2nc(NC(=O)COc3ccc([N+](=O)[O-])cc3)sc2c1	5%	10%[15.4 µM]	1.4	.	27	-5	.
O=[N+]([O-])c1cc(-c2n(-c3ccccn3)c3ccccc3[n+]2-c2ccccn2)ccc1Cl	11%	27%[15.4 µM]	0.1	.	9	5	.
Cc1cc2c(c(=O)n1Cc1cccnc1)C(Cc1ccccc1)C(C#N)=C(N)O2 (stereo not given)	-10%	18%	6.3	-3%	-11	-12	?
O=C(CCN1C(=O)/C(=C\C=C\c2ccccc2)SC1=S)Nc1ccccc1C(=O)O	21%	-3%	.	-37%	10	18	-1.0%
O=C(NNC(=O)c1ccc(Cl)c(Cl)c1)c1ccncc1	.	-43%[15.4 µM]	.	9%	9	.	.
COc1ccc(-c2cc(C(=O)N3CCOCC3)c3ccccc3n2)cc1OC	.	-14%[15.4 µM]	.	2%	9	13	-3.6%
Cn1c(=O)cc(OCCCC(=O)N2CCN(c3ccccc3)CC2)c2ccccc21	2%	-30%[inhibitor]	-2.2	0%	-14	-17	-0.7%
CC1(C)Cc2cccc(OCC(=O)NCCc3ccccc3)c2O1	.	7%	.	-1%	-3	-7	-2.9%

# Continuation:
Compound	Sfp inh	gsp ag	Menin-MLL FL inh	gsp antag	TRPML1 blocker	TRPV1 PAM	ClpP mod
CCn1ccnc1CN(C)Cc1cn(-c2ccc(C)cc2)nc1-c1ccc(F)cc1	?	-17%	-4.0	-10%	80	-44	-4.4%
CCC(C)(C)NC(=O)c1ccc(Br)o1	2%	-5%	-2.4	-11%	-3	-4	299%
COc1ccc(-c2ccc(CNCCCN3CCOCC3)o2)cc1Cl	14%	-33%[inhibitor]	0.2	8%	45	1	-1.5%
CCn1cc(S(=O)(=O)CC(=O)Nc2cccc(C)c2)c2ccccc21	7%	18%	5.8	-13%	17	3	1.6%
COc1ccc(/C=N/NC(=O)C2C(C=C(Cl)Cl)C2(C)C)c(OC)c1 (stereo not given)	10%	?	-1.5	?	15	-9	.
CC(=O)Nc1ccc(CN2CCc3c([nH]c4ccccc34)C2c2ccccn2)cc1 (stereo not given)	1%	-21%	-14	3%	-6	-9	.
COc1ccc(-c2cc3ccc(OCC(N)=O)cc3oc2=O)cc1OC	8%	?	-1.5	6%	-11	4	-1.7%
Cc1ccc2nc(C)cc(OCC(=O)O)c2c1	-17%	-11%	3.4	0%	-7	2	-11%
COC(=O)c1ccccc1S(=O)(=O)N1CCC(C(=O)OCC(=O)c2ccccc2OC)CC1	.	-51%[inhibitor]	.	-15%	-3	0	0.9%
